Marburg entry inh: inhibitors of Marburg virus binding or cell entry; Potency, µM (highest dose often 37.8 µM), for inactives: at the top dose activity change, negative = inhibition, most hits filed as inhibitors; 300,000 compounds, 1.8% hits; Marburg virus pseudotyped entry inhibition, cell reporter; control for the full effect not named in the record; about a third of the inactives were read at about 46 µM; active = well fitted inhibition curve with a large enough effect; inconclusive = small, poorly fitted or top-dose-only effect, or effect the other way; inactive = flat fitted curve, though single readings scatter; tested in HEK293 cells; about a fifth of its hits are not listed in these tables; further: on the % scale 0 is the no-effect control and ±100 the full control effect; luciferase read-out
RE007 growth inh: less growth of the S. pombe RE007 Vpr strain | Potency, µM (series often up to 92.2 µM), inactives show top-dose activity change, negative = less growth | S. pombe RE007 Vpr strain, BacTiter-Glo ATP luminescence, 24 h; control for the full effect not named in the record | 360,000 compounds, 0.21% hits; active = well fitted falling curve with a large enough effect; inconclusive = small, poorly fitted or top-dose-only effect; inactive = no such curve, though single readings can be large or run the other way;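 further: on the % scale 0 is the no-effect control and ±100 the full control effect; nearly all actives have a fitted effect of over 50% in size; the assay follows cell death caused by Vpr and the record does not say whether a fall means rescue or toxicity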
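Fission yeast strain RE007, carrying one chromosomally integrated HIV-1 vpr copy, was seeded at OD 0.01 in PMG+AL medium with 23 nL pinned compound. After 24 h at 30 °C and 99% humidity, viability was read by BacTiter-Glo luminescence.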
Cruzain Triton: inhibitors of Trypanosoma cruzi cruzain with detergent. Potency, µM, without a hit: max response, negative = inhibition, usual class: inhibitors. 200,000 compounds, 0.43% hits. purified cruzain, Z-FR-AMC fluorescence, 0.01% Triton; active means well fitted curve in the direction sought with a large enough effect; inconclusive means small, poorly fitted or top-dose-only effect, or another doubt; inactive means no such curve, though single readings can be large; an effect the other way counts as inactive or inconclusive;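 further: plate controls were neutral wells for no effect and buffer without enzyme for full effect; nearly all actives have a fitted effect of over 40% in size; top concentration of the series not given in the record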
Target sequence (P25779 123-467 limits assumed): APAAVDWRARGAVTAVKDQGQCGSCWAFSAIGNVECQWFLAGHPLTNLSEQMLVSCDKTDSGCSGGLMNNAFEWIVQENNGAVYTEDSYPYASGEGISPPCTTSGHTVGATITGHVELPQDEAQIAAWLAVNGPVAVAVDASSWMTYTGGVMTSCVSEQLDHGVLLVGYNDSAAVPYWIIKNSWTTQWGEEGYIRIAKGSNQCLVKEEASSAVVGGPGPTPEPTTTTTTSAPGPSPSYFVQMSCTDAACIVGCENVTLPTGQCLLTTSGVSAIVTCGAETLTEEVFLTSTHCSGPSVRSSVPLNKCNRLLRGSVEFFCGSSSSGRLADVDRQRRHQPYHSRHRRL
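Detergent-containing arm of a paired screen for aggregation-based inhibition: 0.01% Triton X-100 present. Cruzain at 1.5 nM cleaved 2 uM Z-FR-AMC at pH 5.5 with 5 mM DTT; AMC fluorescence gain over 60 s measured activity.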
Cruzain inh noDet: cruzain (T. cruzi) inhibition without detergent; P25779; purified cruzain, Z-FR-AMC fluorescence, no detergent; Potency, µM, for the others: max response, negative = inhibition, most hits filed as inhibitors; 200,000 compounds, 2.3% hits; active means well fitted curve in the direction sought with a large enough effect; inconclusive means small, poorly fitted or top-dose-only effect, or another doubt; inactive means no such curve, though single readings can be large; an effect the other way counts as inactive or inconclusive;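 further: plate controls were enzyme without inhibitor for no effect and buffer without enzyme for full effect; nearly all actives have a fitted effect of over 40% in size; top concentration of the series not given in the record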
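Purified cruzain at 1.5 nM, pre-incubated 15 min with compound at room temperature in 100 mM sodium acetate pH 5.5, 5 mM DTT, 0.00005% Triton X-100. Reaction started with 2 uM Z-FR-AMC; AMC fluorescence increase over 60 s gives rate.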
NS1 function inh: blocks influenza NS1 protein function. S. cerevisiae slowed by influenza A NS1, growth recovery by OD600. Potency, µM (doses to about 46.1 µM), for inactives: at the highest dose activity, positive = more growth. 270,000 compounds, 0.4% hits; further: actives are rising curves; nearly all actives have a fitted effect of over 50% in size
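OD600 was taken as the measure of yeast growth restored by compound in an NS1-expressing S. cerevisiae strain. Cells had been washed out of glucose medium and diluted 1:100 into galactose -URA medium, pH 6.0.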
LASV entry inh: inhibitors of Lassa virus binding or cell entry; Potency, µM (highest dose often 37.9 µM), for inactives: at the top dose activity change, negative = inhibition, actives largely listed as inhibitors; AID 540256; Lassa virus pseudotype entry inhibition, cell reporter; control for the full effect not named in the record; 300,000 compounds, 1.2% hits; active means well fitted inhibition curve with a large enough effect; inconclusive means small, poorly fitted or top-dose-only effect, or effect the other way; inactive means flat fitted curve, though single readings scatter; tested in HEK293 cells; further: on the % scale 0 is the no-effect control and ±100 the full control effect; nearly all actives have a fitted effect of over 50% in size; luciferase read-out
SARS PLP yeast: inhibitors of SARS-CoV papain-like protease in yeast. S. cerevisiae expressing SARS-CoV PLpro, growth rescue; control for the full effect not named in the record. Potency, µM (titrated, usually from 32.9 µM), without a hit: top-dose activity, positive = growth rescue. 330,000 compounds, 0.19% hits. AID 485353; further: 0% is about no effect; nearly all actives have a fitted effect of over 55% in size; growth read by luminescence after 48 h
StopGo reporter: FMDV 2A StopGo reporter, luciferase signal; Potency, µM (top dose mostly 57.9 µM), for the others: at the highest dose signal change, negative = less light; AID 1159524; 410,000 compounds, 1.2% hits; human cells with a luciferase reporter of 2A StopGo recoding; control for the full effect not named in the record; active = well fitted falling curve with a large enough effect; inconclusive = small, poorly fitted or top-dose-only effect; inactive = no such curve, though single readings can be large or run the other way; tested in HEK293T cells; further: on the % scale 0 is the no-effect control and ±100 the full control effect; nearly all actives have a fitted effect of over 45% in size; luciferase light after 4 h
* hit, by the source's call; ? = inconclusive; . = not tested or not shown; & = joins results of further samples; [ ] = remark or other dose. Unless noted, the call rests on the fitted dose curve; in most records, active means well fitted rising curve with a large enough effect; inconclusive means small, poorly fitted or top-dose-only effect; inactive means no such curve, though single readings can be large or run the other way. Potency means the concentration at half of the fitted maximal effect.

SMILES	Marburg entry inh	RE007 growth inh	Cruzain Triton	Cruzain inh noDet	NS1 function inh	LASV entry inh	SARS PLP yeast	StopGo reporter
CCOc1cc(CNCc2cc(OC)cc(OC)c2)ccc1OC	?	0%	.	.	-14%	?	-2%	?
COc1ccc(OCc2nnc(SCC(=O)Nc3ccccc3C#N)o2)cc1	-24%[46.1 µM]	2%	.	.	3%	-10%[46.1 µM]	0%	-3%
COc1ccc(NC(=O)CCc2nc3cccnc3n2Cc2cccs2)c(OC)c1	-5%[46.1 µM]	.	-1.6%	-3%	.	18%[46.1 µM]	.	-13%
CC1(NC(=O)CCc2nc3ccccc3c(=O)[nH]2)CCS(=O)(=O)C1 (configuration not stated)	.	0%	.	.	4%	.	-2%	3%
CCOC(=O)C1(Cc2cccc(OC)c2)CCN(Cc2ccc(OC)c(O)c2)CC1	.	-2%	.	.	-2%	.	-1%	-26%
COCc1c(C(=O)N/N=C\c2cccs2)nnn1-c1nonc1N	-17%[46.1 µM]	4%	.	.	14%	-4%[46.1 µM]	1%	18%
O=C1c2ccsc2SCCN1Cc1ccc(Cl)cc1Cl	-17%	-9%	-5.9%	1%	-11%	-24%	-25%	-12%
O=C(COC(=O)c1cc([N+](=O)[O-])ccc1NCc1ccccc1)NC1CCCc2ccccc21 (configuration not stated)	1%	2%	1.6%	25µM*	6%	9%	-6%	17%
O=C(Cn1cc([N+](=O)[O-])ccc1=O)NCC1COc2ccccc2O1 (configuration not stated)	?	-18%	.	.	.	14%	1%	-9%
Cc1noc(C)c1COc1ccc(C(=O)OC(C)C(=O)Nc2ccc(S(=O)(=O)N3CCOCC3)cc2)cc1 (configuration not stated)	-3%	-1%	-1.2%	?	11%	3%	-7%	?
COc1ccc(CCC(=O)NCC(c2ccco2)N2CCc3ccccc32)cc1 (configuration not stated)	?	0%	.	.	.	-13%	-19%	-10%
Cc1cc(C)nc(NC(=O)c2c(-c3ccccc3Cl)noc2C)n1	14%	13%	6.9%	-3%	-19%	10%	-1%	15%
COc1ccc(/C=N/c2sc3c(c2C#N)CCN(Cc2ccccc2)C3)c(O)c1	.	.	-4.6%	?	7%	.	5%	.
O=C(Cc1ccc([N+](=O)[O-])cc1)Nc1cc(C(F)(F)F)cc(C(F)(F)F)c1	?	4%	.	.	-3%	?	-2%	-28%
CCOc1ccc(NS(=O)(=O)c2ccc3[nH]cc(C(=O)NCCc4ccccc4)c(=O)c3c2)cc1	.	.	-2.2%	14%	.	9%[46.1 µM]	.	17%
Cc1ccnc(NC(=O)CNC(=O)c2ccccc2Br)c1	.	-8%	.	.	2%	.	-1%	19%
COc1cc(-c2nnc(SCC#CCO)o2)cc(OC)c1OC	-12%	27%	-4.5%	-4%	-8%	4%	0%	5%
O=C(N/N=C1\CC2CC=CC12)c1ccc(COc2ccccc2)cc1 (configuration not stated)	37%	9%	1.1%	-14%	5.6µM*	-3%	-2%	16%
CCOc1ccccc1NC(=O)c1c(NC(=O)C(C)Oc2ccc(Cl)cc2)sc2c1CCCCC2 (configuration not stated)	.	.	0.0%	1%	.	10%[46.1 µM]	.	0%
Cc1ccccc1N(CC(=O)N1CCCC1)S(=O)(=O)c1ccc(Cl)cc1	?	-9%	.	.	.	0%	.	28%
Cn1c(=O)c2c(SCC(=O)N3CCOCC3)nc(CC(C)(C)C)nc2n(C)c1=O	.	.	-3.9%	9%	-17%	.	1%	.
C1CCC(C23CC4CC(CC(C4)C2)C3)NC1 (configuration not stated)	1%	21%	-0.7%	-5%	11%	0%	19%	8%
COc1ccc(C(=O)NCCCNC(=O)c2cnccn2)cc1Br	10%[46.1 µM]	-9%	.	.	6%	-3%	-1%	-20%
Cc1cc(=O)n2c(c1C#N)SC1CCCCC12O (configuration not stated)	17%	-6%	0.9%	-1%	-13%	11%	-2%	.
Cc1ccc(C(=O)NC2CCCCNC2=O)cc1C (configuration not stated)	?	4%	.	.	4%	3%[46.1 µM]	1%	20%
Cc1cc(C)cc(C(=O)NCCCN2CCOCC2)c1	10%	7%	.	.	0%	?	9%	-13%
Cc1ccc(C)c(Nc2nc3c(S(=O)(=O)c4ccccc4)nnn3c3ccccc23)c1	-9%	-2%	1.0%	?	3%	0%	15%	-10%
Cc1ccc(C(C(=O)NC2CCCCC2)N(C(=O)c2csnn2)C2CC2)o1 (configuration not stated)	7%	7%	-0.5%	2%	-10%	-2%	3%	13%
Cc1cccc(NC(=O)c2cc3ccccc3oc2=O)c1	.	0%	.	.	0%	.	8%	13%
CC(=O)c1cccc(NC(=O)c2nc(-c3ccccc3)n(-c3cccc(Cl)c3)n2)c1	.	.	-3.9%	9%	.	-5%[46.1 µM]	.	-28%
COCCn1nnnc1C(c1ccc2ncccc2c1)N1CCN(c2ccccc2F)CC1 (configuration not stated)	-1%&-22%	-12%	1.1%	-2%	-17%	4%	-2%	?
CN(C)NC(=S)NC1CCS(=O)(=O)C1 (configuration not stated)	?	0%	.	.	-1%	12%	1%	4%
N#C/C(=C/N1CCOCC1)c1ccccc1	?	-16%	-3.8%	-4%	-8%	15%	-2%	-44%
O=C(O)c1cccc(COc2cccc3ccccc23)c1	?	?	.	.	.	?	.	-50%
Cc1ccc(NS(=O)(=O)c2ccc3nc(-c4ccccc4)[nH]c3c2)c(Cl)c1	-2%[46.1 µM]	.	-7.8%	11%	.	-8%[46.1 µM]	.	-15%
CCOC(=O)c1c(C)cccc1OCC(N)=O	-19%&-19%	1%	-1.1%	-13%	2%	-7%	-20%	-1%
Cc1cc(C)n(CCC(=O)N/N=C/c2cccc([N+](=O)[O-])c2)n1	.	1%	.	.	-4%	.	1%	6%
COc1ccccc1-c1cc(C(=O)NCCCN2CCOCC2)no1	-18%[46.1 µM]	-27%	.	.	-1%	20%[46.1 µM]	1%	34%[activator]
CCCCn1nc(NS(=O)(=O)c2cccc3nonc23)c2cc3cccc(C)c3nc21	.	5%	.	.	-10%	.	-3%	23%
CN(C)CCNC(=O)c1scc2c1CCCC2	.	17%	.	.	0%	.	2%	-12%
COc1ccc(-c2noc(Cc3ccccc3OC)n2)cc1	15%	-16%	-6.7%	-17%	-32%	1%	-8%	9%
CCOc1ccc(-n2c(SCC(=O)Nc3ccc(OC)cc3OC)nc3c(c2=O)SCC3)cc1	?	1%	-3.0%	0%	-14%	-5%	6%	-22%
COc1cccc(CNC(=O)CSc2ccc(-c3sc(-c4ccccc4)nc3C)nn2)c1	.	.	-6.5%	?	.	?	.	?
COc1cc(/C=N/N=C(\N)c2nonc2N)ccc1O	-1%	5%	.	.	.	?	-2%	12%
O=C(NCC1COc2ccccc2O1)c1ccc(Br)s1 (configuration not stated)	12%[46.1 µM]	-18%	.	.	-18%	-26%[46.1 µM]	-4%	40%[activator]

Compound profiles, from the list above. Order of screens: Marburg entry inh | RE007 growth inh | Cruzain Triton | Cruzain inh noDet | NS1 function inh | LASV entry inh | SARS PLP yeast | StopGo reporter
Cc1cc(C)n(CCC(=O)N/N=C/c2cccc([N+](=O)[O-])c2)n1 reads . | 1% | . | . | -4% | . | 1% | 6%
CN(C)NC(=S)NC1CCS(=O)(=O)C1 (configuration not stated) reads ? | 0% | . | . | -1% | 12% | 1% | 4%

A draw from above in order of count of non-hydrogen atoms, low to high.
SMILES	Marburg entry inh	RE007 growth inh	Cruzain Triton	Cruzain inh noDet	NS1 function inh	LASV entry inh	SARS PLP yeast	StopGo reporter
CCOC(=O)c1c(C)cccc1OCC(N)=O	-19%&-19%	1%	-1.1%	-13%	2%	-7%	-20%	-1%
COc1cccc(CNC(=O)CSc2ccc(-c3sc(-c4ccccc4)nc3C)nn2)c1	.	.	-6.5%	?	.	?	.	?
COCCn1nnnc1C(c1ccc2ncccc2c1)N1CCN(c2ccccc2F)CC1 (configuration not stated)	-1%&-22%	-12%	1.1%	-2%	-17%	4%	-2%	?

Next entries:
SMILES	Marburg entry inh	RE007 growth inh	Cruzain Triton	Cruzain inh noDet	NS1 function inh	LASV entry inh	SARS PLP yeast	StopGo reporter
COc1ccc(S(=O)(=O)N2N=C(C)Oc3ccccc3C2=O)cc1	?	2%	0.8%	0%	-45%	-10%	-4%	-1%
O=C(c1ccccc1)N1CCn2c(nc3ccccc32)C1	16%	3%	0.1%	-8%	6%	19%	5%	9%
C[C@@H]1C(c2ccc(F)cc2)=NN(c2ccccc2)[C@H]1C(=O)N1CCOC1=O	.	6%	-12%	-4%	.	.	3%	-16%
CCCSc1nc(C)cc(C)c1S(C)(=O)=O	15%[46.1 µM]	-4%	.	.	.	-7%[46.1 µM]	3%	-15%
CCCn1c(SCC(=O)Nc2ccccc2C(=O)OC)nc2c1c(=O)n(C)c(=O)n2C	-3%&11%	-3%[3.69 µM]	0.8%	25%	-26%	1%	1%	-19%

Molecules listed so far that contain fluorine:
SMILES	Marburg entry inh	RE007 growth inh	Cruzain Triton	Cruzain inh noDet	NS1 function inh	LASV entry inh	SARS PLP yeast	StopGo reporter
O=C(Cc1ccc([N+](=O)[O-])cc1)Nc1cc(C(F)(F)F)cc(C(F)(F)F)c1	?	4%	.	.	-3%	?	-2%	-28%
COCCn1nnnc1C(c1ccc2ncccc2c1)N1CCN(c2ccccc2F)CC1 (configuration not stated)	-1%&-22%	-12%	1.1%	-2%	-17%	4%	-2%	?
C[C@@H]1C(c2ccc(F)cc2)=NN(c2ccccc2)[C@H]1C(=O)N1CCOC1=O	.	6%	-12%	-4%	.	.	3%	-16%

High-throughput results from PubChem BioAssay.
